NOMO-1 viab: NOMO-1 AML cell viability reduction, primary screen, STK33 inhibitor project, CellTiter-Glo luminescence; NOMO-1 AML viability, 72 h; inhibition, % (concentration not given with the values); 7.5% of 37,000 active; AID 2330, 2010;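 active means most replicates above 80%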;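 further: wells of about 30 µL received 25 nL stock; 0% = median of vehicle wells and 100% = reference inhibitor level; the first replicate is given; inactives centre near 10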
Active calls of the source: *. Not all compounds are listed (hit frequency here may not be typical).

SMILES	NOMO-1 viab
Cc1ccc(S(=O)(=O)Nc2ccc3c(c2)C(=O)N([C@@H](C)CO)C[C@@H](C)[C@@H](CN(C)Cc2ccc(Cl)c(Cl)c2)O3)cc1	117*
COc1ccccc1NC(=O)CCc1nc(-c2ccc(Cl)cc2)no1	-15
COc1ccc(NC(=O)N(C)C[C@H]2Oc3ccc(NC(=O)Nc4ccc5c(c4)OCO5)cc3CC(=O)N([C@H](C)CO)C[C@H]2C)cc1	9
C[C@@H]1CN([C@@H](C)CO)C(=O)Cc2cc(NC(=O)CCCN(C)C)ccc2O[C@@H]1CN(C)S(=O)(=O)c1cccs1	21
CSc1nnc(-c2ccccc2NC(=O)c2ccccc2)c(=O)[nH]1	12
Cc1noc(C)c1S(=O)(=O)Nc1ccc2c(c1)C(=O)N([C@@H](C)CO)C[C@H](C)[C@@H](CN(C)CC1CC1)O2	10
C[C@H]1CN([C@@H](C)CO)C(=O)c2cccc(NC(=O)Nc3ccc4c(c3)OCO4)c2O[C@H]1CN(C)C	16
CCN(CC(=O)Nc1cc(C(F)(F)F)ccc1Cl)S(=O)(=O)c1ccc(Cl)cc1	20
C[C@H]1CN([C@@H](C)CO)C(=O)c2cc(NC(=O)C3CCCCC3)ccc2O[C@H]1CN(C)C(=O)Nc1cccc2ccccc12	-2
Cc1cc(C)nc(SCc2noc(-c3ccc(Cl)cc3)n2)n1	8
Cc1cc(OCC(=O)Nc2ccccc2C(=O)NC2CCCCC2)ccc1Br	29
COC(=O)c1cccc(NC(=O)CSc2nc(C)cc(C(F)(F)F)n2)c1	-7
C[C@@H]1CCCCO[C@H](CN(C)S(=O)(=O)c2ccc(F)cc2)[C@@H](C)CN([C@H](C)CO)C(=O)c2cc(NS(=O)(=O)c3ccc(F)cc3)ccc2O1	24
Cc1noc(C)c1S(=O)(=O)Nc1ccc2c(c1)CC(=O)N([C@@H](C)CO)C[C@H](C)[C@@H](CN(C)C)O2	1
O=C(/C=C/c1ccc(O)cc1)NCCCCN(CCCN(CCCNC(=O)/C=C/c1ccc(O)cc1)C(=O)/C=C/c1ccc(O)cc1)C(=O)/C=C/c1ccc(O)cc1	71
O=C(/C=C/Sc1ccc(Cl)cc1)c1ccccc1	123*
Cc1ccc(S(=O)(=O)N(C)C[C@H]2Oc3ccc(NC(=O)Cc4cn(C)c5ccccc45)cc3C(=O)N([C@@H](C)CO)C[C@@H]2C)cc1	12
C[C@@H]1CCCCO[C@@H](CN(C)S(=O)(=O)c2ccc(Cl)cc2)[C@@H](C)CN([C@H](C)CO)C(=O)c2cc(NC(=O)Nc3ccc4c(c3)OCO4)ccc2O1	16
C[C@@H]1CN([C@@H](C)CO)C(=O)c2cccc(NC(=O)c3cnccn3)c2O[C@H]1CN(C)Cc1ccc2c(c1)OCO2	31
C[C@@H]1CCCCO[C@@H](CN(C)C(=O)CCCN(C)C)[C@@H](C)CN([C@H](C)CO)C(=O)c2cc(NC(=O)Nc3ccc4c(c3)OCO4)ccc2O1	-11
COc1ccc(C(C)NC(=O)c2cc(-c3ccccn3)nc3ccc(Cl)cc23)cc1OC (configuration not stated)	56
CNC[C@@H]1Oc2ccc(NC(=O)CCC(F)(F)F)cc2C(=O)N([C@H](C)CO)C[C@@H]1C	5
CC(C)NC(=O)N(C)C[C@H]1Oc2c(NC(=O)c3cnccn3)cccc2C(=O)N([C@@H](C)CO)C[C@H]1C	17
Cc1noc(C)c1S(=O)(=O)Nc1ccc2c(c1)CC(=O)N([C@H](C)CO)C[C@@H](C)[C@@H](CN(C)S(C)(=O)=O)O2	1
Cc1noc(C)c1S(=O)(=O)Nc1cccc2c1O[C@@H](CN(C)S(=O)(=O)c1cccs1)[C@@H](C)CN([C@H](C)CO)C2=O	19

Reprinted from the part before: 2 compounds; new compounds follow.
SMILES	NOMO-1 viab
Cc1noc(C)c1S(=O)(=O)Nc1ccc2c(c1)CC(=O)N([C@H](C)CO)C[C@@H](C)[C@@H](CN(C)S(C)(=O)=O)O2	1
Cc1noc(C)c1S(=O)(=O)Nc1cccc2c1O[C@@H](CN(C)S(=O)(=O)c1cccs1)[C@@H](C)CN([C@H](C)CO)C2=O	19
COc1ccc(NC(=O)N(C)C[C@@H]2Oc3ccc(NC(=O)Nc4ccc(F)cc4)cc3C(=O)N([C@H](C)CO)C[C@@H]2C)cc1	-10
C[C@@H]1CCCCO[C@H](CN(C)S(=O)(=O)c2cn(C)cn2)[C@@H](C)CN([C@H](C)CO)C(=O)c2cc(NC(=O)Nc3cccc4ccccc34)ccc2O1	12
C[C@H](CO)N1C[C@H](C)[C@H](CN(C)S(=O)(=O)c2ccc(F)cc2)Oc2ccc(NC(=O)Nc3ccccc3)cc2CC1=O	41
C[C@@H]1CN([C@H](C)CO)C(=O)c2cccc(NC(=O)Nc3ccc4c(c3)OCO4)c2O[C@@H]1CN(C)S(=O)(=O)c1cccs1	15
Cc1cc(C)nc(N(C#N)Cc2cccc([N+](=O)[O-])c2)n1	-10
C[C@H]1CN([C@@H](C)CO)C(=O)c2cc(NS(=O)(=O)c3ccc(F)cc3)ccc2O[C@H]1CN(C)S(=O)(=O)c1ccc(Cl)cc1	10
Cc1c(F)cccc1NC(=O)CCC(=O)O	25
CC(C)NC(=O)Nc1cccc2c1O[C@@H](CN(C)Cc1ccncc1)[C@@H](C)CN([C@@H](C)CO)C2=O	20
C[C@@H]1CN([C@@H](C)CO)C(=O)Cc2cc(NC(=O)CCC(F)(F)F)ccc2O[C@@H]1CN(C)C(=O)Nc1ccc(F)cc1	9
c1coc(-c2nn3c(C4COc5ccccc5O4)nnc3s2)c1 (configuration not stated)	16
CC(C)NC(=O)Nc1cccc2c1O[C@@H](CN(C)S(=O)(=O)c1ccccc1)[C@@H](C)CN([C@@H](C)CO)C2=O	-10
C[C@@H]1CCCCO[C@@H](CN(C)C(=O)c2ccncc2)[C@@H](C)CN([C@H](C)CO)C(=O)c2cc(N(C)C)ccc2O1	18
COc1ccc(S(=O)(=O)N(C)C[C@H]2Oc3c(NC(=O)c4ccc(-c5nccs5)cc4)cccc3C(=O)N([C@@H](C)CO)C[C@H]2C)cc1	7
Cc1noc(C)c1S(=O)(=O)Nc1cccc2c1O[C@H](CN(C)Cc1ccc(C(=O)O)cc1)[C@@H](C)CN([C@@H](C)CO)C2=O	-19
C[C@H](CO)N1C[C@H](C)[C@H](CN(C)C(=O)Nc2ccc(C(F)(F)F)cc2)Oc2ccc(NC(=O)CCN3CCOCC3)cc2CC1=O	-18
CC(C)(Oc1ccc(Cl)cc1)C(=O)Nc1cc(-c2nc3ncccc3o2)ccc1Cl	37
C[C@@H]1CN([C@H](C)CO)C(=O)c2cccc(NS(=O)(=O)c3ccc(F)cc3)c2O[C@@H]1CN(C)Cc1ccc(C(F)(F)F)cc1	30
Cc1sc2ncnc(SCC(=O)N3CCC(c4noc5ccc(F)cc45)CC3)c2c1C	22
Cc1ccc(-n2c3c(cc(C(=O)NCCCN4CCOCC4)c2=O)C(=O)CCC3)cc1	7
C[C@@H]1CCCCO[C@H](CN(C)C(=O)NC2CCCCC2)[C@@H](C)CN([C@H](C)CO)C(=O)c2cc(NC(=O)C3CCCCC3)ccc2O1	20
Fc1ccc(N2CCN(CCC3OCCc4ccccc43)CC2)cc1 (configuration not stated)	37
C[C@@H]1CN([C@H](C)CO)C(=O)Cc2cc(NC(=O)Nc3cccc4ccccc34)ccc2O[C@@H]1CN(C)Cc1ccncc1	32
Cc1cc(Cl)ccc1N(CC(=O)Nc1cccc(C)c1C)S(C)(=O)=O	8
C[C@H](CO)N1C[C@H](C)[C@@H](CN(C)C(=O)Nc2ccc(F)cc2)Oc2c(NS(=O)(=O)c3cn(C)cn3)cccc2C1=O	12
C=C1CC[C@H]2C(=C)CC[C@@]3(O)C(=C)C(=O)O[C@@H]3[C@@H]12	110*

Entries from the list above that have an aryl methoxy group, in the order listed:
SMILES	NOMO-1 viab
COc1ccccc1NC(=O)CCc1nc(-c2ccc(Cl)cc2)no1	-15
COc1ccc(NC(=O)N(C)C[C@H]2Oc3ccc(NC(=O)Nc4ccc5c(c4)OCO5)cc3CC(=O)N([C@H](C)CO)C[C@H]2C)cc1	9
COc1ccc(C(C)NC(=O)c2cc(-c3ccccn3)nc3ccc(Cl)cc23)cc1OC (configuration not stated)	56
COc1ccc(NC(=O)N(C)C[C@@H]2Oc3ccc(NC(=O)Nc4ccc(F)cc4)cc3C(=O)N([C@H](C)CO)C[C@@H]2C)cc1	-10
COc1ccc(S(=O)(=O)N(C)C[C@H]2Oc3c(NC(=O)c4ccc(-c5nccs5)cc4)cccc3C(=O)N([C@@H](C)CO)C[C@H]2C)cc1	7

Three entries from above, bar-delimited.
Structure | NOMO-1 viab
C[C@@H]1CN([C@@H](C)CO)C(=O)Cc2cc(NC(=O)CCC(F)(F)F)ccc2O[C@@H]1CN(C)C(=O)Nc1ccc(F)cc1 | 9
c1coc(-c2nn3c(C4COc5ccccc5O4)nnc3s2)c1 (configuration not stated) | 16
CC(C)NC(=O)Nc1cccc2c1O[C@@H](CN(C)S(=O)(=O)c1ccccc1)[C@@H](C)CN([C@@H](C)CO)C2=O | -10

Further entries follow:
SMILES	NOMO-1 viab
COc1ccc(NC(=O)CN(c2ccc(OC)c(Cl)c2)S(C)(=O)=O)cc1Cl	3
O=S(=O)(NCc1ccccn1)c1ccc2ccccc2c1	25
C=CCn1c2ccccc2c2nnc(SCC(=O)N3c4ccccc4Sc4ccccc43)nc21	16
CC(C)=CCc1c2c(c3occ(-c4ccc(O)cc4)c(=O)c3c1O)C=CC(C)(C)O2	107*
COc1ccc(NC(=O)CSc2ccccc2)cc1NC(=O)c1ccco1	-9
CCC(C)/C=C(C)/C=C/C1=CC2=C(Cl)C(=O)C(C)(OC(C)=O)C(=O)C2=CN1CCCC(=O)O (configuration not stated)	101*
O=C(CSc1ccccn1)Nc1ccc(Oc2ccccc2)cc1	-5
CC1(C)CCC2(C(=O)OC3OC(COC4OC(CO)C(O)C(O)C4O)C(O)C(O)C3O)CCC3(C)C(=CCC4C5(C)CCC(OC6OCC(O)C(O)C6O)C(C)(C)C5CCC43C)C2C1O (configuration not stated)	-16
O=C(OCc1cccc(O)c1O[C@@H]1O[C@H](CO)[C@@H](O)[C@H](O)[C@H]1O)C1(O)C(=O)C2C=CC1C1C=CC(=O)C(O)(C(=O)OCc3cccc(O)c3O[C@@H]3O[C@H](CO)[C@@H](O)[C@H](O)[C@H]3O)C21 (some centres not stated)	41
O=C(ON1C(=O)c2ccccc2C1=O)C1CCCCC1	126*
C[C@H](CO)N1C[C@H](C)[C@@H](CN(C)S(=O)(=O)c2cn(C)cn2)Oc2c(NS(=O)(=O)c3cn(C)cn3)cccc2C1=O	20
O=C(OCCn1ncc2ccccc2c1=O)c1cccs1	34
COc1ccc(CN(C)C[C@@H]2Oc3c(NS(=O)(=O)c4ccccc4)cccc3C(=O)N([C@@H](C)CO)C[C@H]2C)cc1	-21
Cn1c(SCC(=O)c2cc3ccccc3o2)nnc1-c1ccccc1	-13
CC(C)(O)CC[C@@H](O)[C@](C)(O)C1CC[C@@]2(O)C3=CC(=O)C4C[C@@H](O)[C@@H](O)C[C@]4(C)C3CC[C@]12C (some centres not stated)	-1
NS(=O)(=O)c1ccc(CNC(=O)c2cc(-c3cccnc3)nc3ccc(Br)cc23)cc1	-2
COc1ccc(S(=O)(=O)Nc2ccc3c(c2)CC(=O)N([C@@H](C)CO)C[C@@H](C)[C@@H](CN(C)C(=O)Nc2ccc4c(c2)OCO4)O3)cc1	5
CCOC(=O)c1c(NC(=O)CSc2ncn[nH]2)sc2c1CCCCC2	17
O=C(COc1ccc(Cl)cc1)Nc1ccc2oc(-c3cccc(F)c3)nc2c1	8
C[C@@H]1CN([C@H](C)CO)C(=O)Cc2cc(NC(=O)Cc3cn(C)c4ccccc34)ccc2O[C@@H]1CN(C)Cc1ccc(Oc2ccccc2)cc1	116*
COc1cc(C2C(C(=O)c3cccs3)C(=O)C(=O)N2Cc2ccco2)cc(OC)c1OC (configuration not stated)	-5
C[C@@H]1CN([C@H](C)CO)C(=O)c2cc(NS(=O)(=O)c3ccc(F)cc3)ccc2O[C@H]1CN(C)Cc1ccc(C(F)(F)F)cc1	81*
Cc1ccc(S(=O)(=O)N(C)C[C@H]2Oc3ccc(NC(=O)NC4CCCCC4)cc3C(=O)N([C@H](C)CO)C[C@@H]2C)cc1	22
O=C(CC1(O)C(=O)N(Cc2ccccc2)c2ccc(Br)cc21)c1ccc2c(c1)OCCO2 (configuration not stated)	5
Cc1noc(C)c1NC(=O)N(C)C[C@@H]1Oc2ccc(NC(=O)c3ccncc3)cc2CC(=O)N([C@H](C)CO)C[C@H]1C	-26
SMILES	NOMO-1 viab
Cc1ccc(C)c(NC(=O)COc2ccc(C(=O)Nc3ccccc3C)cc2)c1	25
C[C@@H]1CCCCO[C@@H](CN(C)Cc2ccc(C(=O)O)cc2)[C@@H](C)CN([C@H](C)CO)C(=O)c2cc(NC(=O)c3ccncc3)ccc2O1	0
CNC[C@H]1Oc2c(NC(=O)Nc3ccc(C(F)(F)F)cc3)cccc2C(=O)N([C@@H](C)CO)C[C@@H]1C	-6
CNC[C@H]1Oc2ccc(NC(=O)Nc3ccc(F)cc3)cc2C(=O)N([C@@H](C)CO)C[C@@H]1C	3
CNC[C@H]1Oc2c(NS(=O)(=O)c3c(C)noc3C)cccc2C(=O)N([C@@H](C)CO)C[C@H]1C	19
COc1ccc([C@@H]2CC(=O)c3c(O)cc(O[C@@H]4O[C@H](CO[C@@H]5O[C@@H](C)[C@H](O)[C@@H](O)[C@H]5O)[C@@H](O)[C@H](O)[C@H]4O)cc3O2)cc1O	0
Cc1noc(C)c1C(=O)NCc1ccco1	25
COC(=O)c1cc(-c2ccccc2)sc1NC(=S)NC(C)c1cc(OC)ccc1OC (configuration not stated)	22
C[C@H]1CN([C@@H](C)CO)C(=O)c2cc(NS(=O)(=O)c3cn(C)cn3)ccc2O[C@@H]1CN(C)CC1CCCCC1	-1
CNC[C@H]1Oc2ccc(NC(=O)Cn3cnnn3)cc2CC(=O)N([C@@H](C)CO)C[C@@H]1C	6
COc1ccc(-c2cc3cc(OC)c(OC)cc3c(Cc3ccccc3)n2)cc1	35
COc1ccc(S(=O)(=O)Nc2cccc3c2O[C@@H](CN(C)C)[C@@H](C)CN([C@H](C)CO)C3=O)cc1	-9
